Source: PubChem BioAssay (National Center for Advancing Translational Sciences (NCATS))
Vaccinia mCherry: inhibitors of vaccinia virus infection (mCherry reporter signal); Vaccinia virus mCherry reporter infection, fluorescence; about a quarter of the inactives have no number; Potency, µM (doses to about 36.5 µM), inactives show at the highest dose activity change, negative = inhibition, actives largely listed as inhibitors; AID 720579; hit rate 0.63% among 310,000; active = well fitted inhibition curve with a large enough effect; inconclusive = small, poorly fitted or top-dose-only effect; inactive = no such curve, though single readings can be large or run the other way; tested in A549 cells; also: nearly all actives have a fitted effect of over 35% in size; inactives centre near -10
Vaccinia Venus: vaccinia inhibition (Venus reporter). hit rate 0.46% among 330,000. Potency, µM (series often up to 36.5 µM), inactives show at the top dose activity change, negative = inhibition, actives largely listed as inhibitors. Vaccinia virus Venus reporter expression, fluorescence; active means well fitted inhibition curve with a large enough effect; inconclusive means small, poorly fitted or top-dose-only effect; inactive means no such curve, though single readings can be large or run the other way; tested in A549 cells; also: nearly all actives have a fitted effect of over 30% in size; inactives centre near -10
* hit, by the source's call; i = inactive; u = inconclusive; x = not tested or not shown; [ ] = remark or other dose. % is scaled to controls: 0 for no effect and ±100 for the full control effect; potency is read from the fitted curve at half-maximal effect. Rows are unselected. About 0.88% of those tested had a hit in this group.

SMILES	Vaccinia mCherry	Vaccinia Venus
c1ccc2oc(-c3csc(NCC4CCCO4)n3)cc2c1 (configuration not stated)	i	-15%
COc1ccc(C(=O)CN2CCN(c3ccc(F)cc3)CC2)cc1OC	-10%	-1%
COC(=O)c1cn(-c2ccccc2)c(=O)c2ccccc12	i	-10%
COc1cc2c(cc1OC)CN(C(=O)/C=C/c1ccccc1[N+](=O)[O-])CC2	u	-24%
COc1ccc(S(=O)(=O)N2CCOCC2)cc1OC	-10%	7%
CN(C)S(=O)(=O)c1ccc(Nc2ccc(-c3ccc4c(c3)OCCO4)nn2)cc1	12%	0%
CCOC(=O)CNC(=O)CNC(=O)c1ccc(OCC(C)C)cc1	-29%	-28%
CCCC1=C(C(=O)OCC)C(c2ccc(NC(C)=O)cc2)NC(=O)N1 (configuration not stated)	-21%	-13%
Cc1cc(NC(=O)NC(=O)c2ccccc2NC(=O)CN(C)C)ccc1Oc1ncc(Br)cn1	-14%	-30%
O=C(C[C@H]1CC[C@@H]2[C@H](COC[C@@H](O)CN2C(=O)C2CC2)O1)NCc1ccccc1Cl	-4%	-1%
O=C(COc1cccc(C(F)(F)F)c1)Nc1nnc(C2CC2)s1	i	-10%
CCCOc1ccc(C(=O)Nc2ccc(S(=O)(=O)N3CCN(C)CC3)cc2)cc1	-2%	-14%
O=C(Nc1ccc2oc(-c3ccncc3)nc2c1)c1ccccc1F	-19%	-19%
O=C(CCN1C(=O)/C(=C/c2ccccc2Cl)SC1=S)N1CCOCC1	u	u
Cc1ccc(/C=N/NC(=O)CSc2nnc(-c3ccc(Cl)cc3)n2-c2ccc(Cl)cc2)o1	-11%	-24%
COc1ccc(NC(=O)c2cc(C3CC3)nc3c2c(C)nn3-c2ccc(C)cc2)cc1OC	-18%	-7%
CCOC(=O)c1c(C)sc(-c2c(-c3ccc4c(c3)OCCO4)[nH]c3c2c(=O)n(C)c(=O)n3C)c1O	-5%	-11%
Cc1ccc(OCCNC(=O)c2ccccc2F)cc1	-9%	-5%
O=C(CCN1C(=O)NC2(CCCC2)C1=O)Nc1ccc(-c2nc3ccccc3s2)cc1	-32%	-11%
Cn1c2ccc(F)cc2c2nnc(NN)nc21	-13%	-3%
CC1CN(C2CCCCC2)c2nc3c(c(=O)[nH]c(=O)n3C)n2C1 (configuration not stated)	x	u
O=C(Nc1ccncc1)c1ccc2c(c1)OCCO2	x	-25%
CC1(Oc2ccccc2-c2ccno2)CCN(Cc2csc3ccccc23)C1 (configuration not stated)	u	-19%
O=c1c(-c2cc(O)c(O)c(O)c2)coc2cc(O)c(O)c(O)c12	0%	-29%
OCCC1CN(Cc2ccc(-c3ccco3)cc2)CCN1Cc1ccsc1 (configuration not stated)	-14%	-16%
CN(C)S(=O)(=O)c1ccc2c(c1)c(=O)c(C(=O)NCCCN1CCCCCC1)cn2C	-9%	-1%
CSc1nc(N)nc(SCC(=O)Nc2cccc(F)c2)c1C#N	u	u
Cc1ccc(C)c(NC(=O)CSc2nnc(-c3n[nH]c4ccccc34)o2)c1	i	-12%
COc1ccc(CNC(=O)Cc2c(C(=O)O)c(C)cn2C)cc1	-13%	-6%
Cc1ccc([C@H]2C(C(=O)O)=CC[C@@H](c3ccc(Cl)cc3)N2S(=O)(=O)c2ccc(C)cc2)cc1	-12%	0%
Cc1ccccc1CSCCNC(=O)c1ccccc1	-11%	-11%
COc1ccc(-c2c(C)nn3c(N4CCC(C(=O)N5CCCCC5)CC4)cc(C)nc23)cc1OC	-1%	-29%
CCOc1ccc(N(C(C)=O)C2C=CS(=O)(=O)C2)cc1 (configuration not stated)	4%	6%
Cc1cc(C#N)c(SCC(N)=O)nc1-c1ccc(F)cc1	i	-19%
O=C(O)CCn1c(=O)c2cccn2c2cccnc21	-3%	-4%
COc1cc(OC)c(NC(=O)N2CCc3cc(S(=O)(=O)N4CCC(C)CC4)ccc32)cc1Cl	-28%	-22%
CCc1nnc(NC(=O)c2cccc(S(=O)(=O)N3CC(c4ccccc4)CC3=O)c2)s1 (configuration not stated)	-13%	-12%
Cc1occc1-c1nnc(SCC(=O)Nc2nc(C(C)(C)C)cs2)o1	u	u
N#Cc1c(N2CCSCC2)nsc1-c1ccccc1Cl	-1%	-13%
CCc1nnc(NC(=O)c2ccc(COc3ccccc3Cl)o2)s1	i	-5%
Fc1ccc(C(Nc2ccc(Cl)c(C(F)(F)F)c2)c2nnc(-c3ccccc3)o2)cc1 (configuration not stated)	-10%	-3%
O=C1CCCN1CCC1CCN(C2CC(=O)N(c3ccc(F)cc3)C2=O)CC1 (configuration not stated)	i	2%
CN1CCN(S(=O)(=O)c2cccc(C(=O)NCCC3=CCCCC3)c2)CC1	-21%	-16%
COCc1cc(C)nc(N2CCN(Cc3ccccc3)CC2)c1C#N	x	-10%
C=CC[C@H](c1ccc(F)cc1)N(CC(C)C)S(=O)(=O)C=C	-51%	-71%
Cc1nn(CCC#N)c(N)c1C1(O)C(=O)Nc2c(Cl)cc(Cl)cc21 (configuration not stated)	u	19%
CC(C)=CCN1CC[C@@]2(C)c3cc(O)ccc3CC1C2C (some centres not stated)	-2%	-12%
CCOC(=O)c1cc(NC(=O)c2ccco2)ccc1N1CCOCC1	-4%	-12%
O=C1C2C3C=CC(C4CC34)C2C(=O)N1c1cc(Cl)ccn1 (configuration not stated)	-20%	-10%
O=C(NN=C1CCN(Cc2ccccc2)CC1)c1ccccc1	-4%	-15%
Cc1ccc(CNC(=O)CN(c2cc(C)cc(C)c2)S(=O)(=O)c2c(C)[nH]c(=O)[nH]c2=O)cc1	-7%	9%
CCN(CC)CCN(C)Cc1ccc(Br)cc1	i	-5%
CS(=O)(=O)c1ccccc1-c1nnc(-c2ccc(Cl)cc2)o1	i	-14%
Cc1ccc(S(=O)(=O)CC(=O)Nc2sc3c(c2C(N)=O)CCCC3)cc1	i	-8%
Cc1ccc(S(=O)(=O)CCC(=O)OCC(=O)N2CCc3ccccc32)cc1	-11%	-12%
O=C(Nc1ccc2c(c1)C(=O)OC2)c1ccccc1Cl	-5%	-8%
COc1ccc(/C=N/OCC(=O)N(Cc2ccccc2)c2ccccc2C(=O)O)cc1	-3%	-13%
COCCn1c(SCC(=O)c2c[nH]c3ccccc23)nc2cc(C(=O)NCC(C)C)ccc2c1=O	-12%	-13%
COc1cc2c(cc1O)C[C@H]1c3c(cc(O)c(OC)c3-2)CCN1C	-15%	-9%
COC(=O)c1cnn(-c2ccccc2)c1/C=N/NC(=S)Nc1ccc(Cl)cc1	-16%	-8%

Next section
SMILES	Vaccinia mCherry	Vaccinia Venus
Cc1ccc(C(=O)Nc2ccc3oc(-c4cccnc4)nc3c2)c(Cl)c1	-25%	-12%
COCCCNC(=O)Cn1cc(C(C)=O)c2ccccc21	-8%	-21%
N#CC1=C(N)C2=CCCC[C@H]2[C@H](c2ccccc2)C1(C#N)C#N	u	-12%
Cc1ccc(S(=O)(=O)C(C)C(=O)NCCS(=O)(=O)c2ccc(Cl)cc2)cc1 (configuration not stated)	i	-5%
Cn1c(CC(=O)Nc2ccc(Cl)cc2)nnc1SCC(=O)N1CCOCC1	-11%	3%
COc1ccc(CC(=O)Nc2c3c(nn2C(C)(C)C)CS(=O)(=O)C3)cc1	i	-7%
COCCNc1nnc(Cc2ccc(OC)c(OC)c2)c(=O)[nH]1	i	-16%
CCOc1ccccc1NC(=O)CSc1nnnn1-c1ccccc1	x	-9%
Cc1ccn2c(=O)nc(SCC(=O)c3ccc(Cl)cc3)nc2c1	i	-16%
COc1ccc(-n2c(SCC(=O)N3CCCc4ccccc43)nc3c([nH]c4ccccc43)c2=O)cc1	2%	12%
COc1cccc(C(=O)OCCCOC(=O)c2cccc(OC)c2OC)c1OC	-21%	-16%
C=CC[C@H]1C(C(=O)OCC)=CC[C@@H](c2ccccc2)N1S(=O)(=O)c1ccc(C)cc1	i	-3%
CCc1ccc(-n2c(SCC(=O)Nc3cc(C)[nH]n3)nc3[nH]ncc3c2=O)cc1	x	-15%
O=C(c1cccc(S(=O)(=O)N2CCCc3ccccc32)c1)N1CCN(c2ccccc2)CC1	-6%	u
Cc1ccc(CCNS(=O)(=O)c2cc(Br)cnc2N)cc1	-7%	-18%
CCC(=Nc1ccccc1NC(C)=O)c1c(O)n(C)c(=O)n(C)c1=O	-19%	-9%
CC(=O)c1sc(Nc2ccccc2)nc1C	11%	8%
O=C(Nc1ccccn1)c1ccc([N+](=O)[O-])cc1Cl	i	-4%
COc1ccccc1-n1cn[nH]c1=S	i	-12%
CN1CCC(N(C)C(=S)Nc2ccc(SC(F)F)cc2)CC1	-9%	-14%
Cc1cc2c3c([nH]c2cc1S(=O)(=O)NCc1ccc(CN2CCCCCC2)o1)CCCC3=O	-5%[7.34 µM]	0%[7.34 µM]
CC(=O)Nc1ccc(NC(=O)CSc2ccc(-c3ccco3)nn2)cc1	-9%	-18%
CC1(C)CCCC(C)(C)N1CC(O)COCCOc1ccc(Br)cc1 (configuration not stated)	u	-25%
O=C(NCC1CCCCC1)c1cccc(-c2ccc(O)cc2)c1	u	-20%
CCC(C)NC(=O)N[C@@H](CCSC)C(=O)O (some centres not stated)	0%	15%
O=C(/C(=C(/[O-])c1ccccc1)[n+]1ccccc1)c1ccc([N+](=O)[O-])cc1	-15%	0%
Cc1ccc(Nc2nc(NCCCN3CCOCC3)nc(N)c2[N+](=O)[O-])cc1C	-3%	-10%
CC(CCc1ccccc1)NC(=O)CNc1cccc([N+](=O)[O-])c1 (configuration not stated)	-13%	-13%
NS(=O)(=O)c1ccc(CNC(=O)C2CCCN2C(=O)c2cccs2)cc1 (configuration not stated)	0%	4%
O=C(NC1CCS(=O)(=O)C1)N1CCCCC1 (configuration not stated)	-14%	u
Cn1nc(-c2ccccc2)c(-c2ccccc2)c(C(=O)Nc2ccccc2C(N)=O)c1=O	-9%	-9%
Cc1ccc(-c2nc3c(=O)n(C)c4ccccc4c3o2)cc1	-6%	-7%
COc1ccccc1NC(=O)Nc1ncccc1C	i	-10%
CO/N=C(/C(=O)N[C@H]1C(=O)N2C(C(=O)O)=C(COC(C)=O)CSC12)c1csc(N)n1 (some centres not stated)	-11%	5%
CC(C)N1CCc2nc(SCC(=O)Nc3cccc(F)c3)[nH]c(=O)c2C1	-13%	4%
COc1ccc(CCN2C(=O)CCC3=C2CCCC3=O)cc1OC	-6%	5%

Reformatted: results already given
Value order: Vaccinia mCherry	Vaccinia Venus
- CN1CCC(N(C)C(=S)Nc2ccc(SC(F)F)cc2)CC1
  -9%	-14%
- Cc1cc2c3c([nH]c2cc1S(=O)(=O)NCc1ccc(CN2CCCCCC2)o1)CCCC3=O
  -5%[7.34 µM]	0%[7.34 µM]
- CC(=O)Nc1ccc(NC(=O)CSc2ccc(-c3ccco3)nn2)cc1
  -9%	-18%
- CC1(C)CCCC(C)(C)N1CC(O)COCCOc1ccc(Br)cc1 (configuration not stated)
  u	-25%
- O=C(NCC1CCCCC1)c1cccc(-c2ccc(O)cc2)c1
  u	-20%
- CCC(C)NC(=O)N[C@@H](CCSC)C(=O)O (some centres not stated)
  0%	15%
- O=C(/C(=C(/[O-])c1ccccc1)[n+]1ccccc1)c1ccc([N+](=O)[O-])cc1
  -15%	0%
- Cc1ccc(Nc2nc(NCCCN3CCOCC3)nc(N)c2[N+](=O)[O-])cc1C
  -3%	-10%
- CC(CCc1ccccc1)NC(=O)CNc1cccc([N+](=O)[O-])c1 (configuration not stated)
  -13%	-13%
- NS(=O)(=O)c1ccc(CNC(=O)C2CCCN2C(=O)c2cccs2)cc1 (configuration not stated)
  0%	4%
- O=C(NC1CCS(=O)(=O)C1)N1CCCCC1 (configuration not stated)
  -14%	u
- Cn1nc(-c2ccccc2)c(-c2ccccc2)c(C(=O)Nc2ccccc2C(N)=O)c1=O
  -9%	-9%
- Cc1ccc(-c2nc3c(=O)n(C)c4ccccc4c3o2)cc1
  -6%	-7%
- COc1ccccc1NC(=O)Nc1ncccc1C
  i	-10%

Remaining list, next part.
SMILES	Vaccinia mCherry	Vaccinia Venus
CCOC(=O)N(C)c1c(CC)nc2c(OCc3ccc(F)cc3)cccn12	i	-3%
COc1ccccc1N(C(=O)CNC(=O)c1ccco1)C(C(=O)NC1CCCC1)c1ccncc1 (configuration not stated)	-2%	5%
COc1ccc(NC(=O)Cn2nc(C)c([N+](=O)[O-])c2C)cn1	i	7%
Cc1cc(C)n(-c2ncnc3sc(C)c(C)c23)n1	-16%	-9%
COc1ccc(NC(=O)CC2C(=O)N(c3ccc(F)cc3)C(=O)N2Cc2ccco2)cc1 (configuration not stated)	-9%	-13%
CCOc1cc2c(cc1OCC)C(C(=O)O)C(c1cc(OC)c(OC)c(OC)c1)N(C)C2=O (configuration not stated)	-5%	-1%
Cc1ccc2cc(C)c(SCC(=O)Nc3cc(C)on3)nc2c1	-13%	-10%
CCCCOc1ccccc1Cn1c(=O)oc2ccccc21	x	-3%
CCN(CC)c1ncnc2scc(C3COc4ccccc4O3)c12 (configuration not stated)	i	-16%
CCc1cccc(NC(=O)CCN2C(=O)c3ccccc3Sc3ncccc32)c1	-6%	-6%
O=S(=O)(Cc1ccccc1)c1ccccc1-c1nnc(-c2ccccc2)o1	x	u
COc1cc(/C=N/NC(=O)c2c(-c3ccccc3)noc2C)cc(OC)c1OC	i	2%
CCCCN(C(=O)NC(=O)Nc1ccccc1C)S(C)(=O)=O	-17%	-12%
COc1ccc(CNC(=O)C(c2ccncc2)N(C(=O)Cc2cccs2)c2cccc(C)c2)cc1 (configuration not stated)	u	-17%
COc1ccc(CC(=O)OCC(=O)N2CCN(S(=O)(=O)c3ccc(C)cc3C)CC2)cc1OC	-12%	-13%
